FGF22 binding = FGF22 (human) thermal shift binding | 1.5% of 340,000 active | Q9HCT0 | calls only at 9.99 µM | recombinant FGF22 thermal shift, SYPRO orange fluorescence; percent of sucrose octasulfate shift, DMSO zero;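 active means melting point raised past a set limit in the mean and every replicate; three in four hits are not shown here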
Target sequence (Q9HCT0 whole entry, looked up): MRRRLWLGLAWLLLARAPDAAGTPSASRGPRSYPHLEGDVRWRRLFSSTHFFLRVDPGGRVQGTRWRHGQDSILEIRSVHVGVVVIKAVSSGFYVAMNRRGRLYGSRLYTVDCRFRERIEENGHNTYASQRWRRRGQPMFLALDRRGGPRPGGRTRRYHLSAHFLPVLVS
Beta2AR agonist = activates human beta-2 adrenergic receptor causing internalization. P07550. Am2.2-beta2AR cells, FAP receptor internalization, flow cytometry; reference of the scale not given here. response, % (test concentration not listed). 0.43% of 340,000 active;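 active means response above a set limit, near 3 SD of response in nonfluorescent compounds, cut at about 42% in these data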;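 further: stock transfer was 100 nL into about 11 µL; a reference agonist was the positive control; negative values mostly stem from fluorescent compounds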
HNF4A DNA FP = change in binding of human HNF4 alpha to DNA; HNF4a-FITC DNA binding, fluorescence polarization, 1 h; activity change, % at 10 µM; 0.3% of 360,000 active; in the data active means activity change above about 30%, passing the limit was not always enough;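 further: controls were the assay level and a saturating level of protein; the project sought stronger binding though the title names inhibitors; some compounds called inactive have numbers as strong as hits; positive values seem to mean higher polarization but the record does not say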
Target sequence (P41235 whole entry, looked up): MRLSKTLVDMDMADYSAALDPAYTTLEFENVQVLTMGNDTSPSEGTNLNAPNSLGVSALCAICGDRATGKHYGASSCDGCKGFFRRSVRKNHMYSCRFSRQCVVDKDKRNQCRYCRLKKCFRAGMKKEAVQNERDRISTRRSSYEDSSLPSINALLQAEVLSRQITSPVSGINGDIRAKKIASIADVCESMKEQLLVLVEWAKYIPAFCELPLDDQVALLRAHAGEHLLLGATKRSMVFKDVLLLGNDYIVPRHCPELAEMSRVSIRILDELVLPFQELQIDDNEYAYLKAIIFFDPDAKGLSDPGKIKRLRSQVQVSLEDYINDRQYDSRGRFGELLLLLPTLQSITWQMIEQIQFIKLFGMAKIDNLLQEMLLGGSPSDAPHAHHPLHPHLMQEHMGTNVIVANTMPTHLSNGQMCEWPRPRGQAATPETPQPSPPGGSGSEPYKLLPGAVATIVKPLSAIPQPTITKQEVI
UCH37 inh = blocks the human deubiquitinase UCH37 | Q9Y5K5 | purified proteasome/UCH37, Ub-AMC cleavage fluorescence | inhibition, % (concentration not given with the values) | 0.33% of 330,000 active;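 active means mean of two replicates above 20%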;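 further: 0% = compound-free wells with enzyme and 100% = wells lacking proteasome; stock transfer was 100 nL into about 20 µL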
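Schedule: 30 min plus 25 min, room temperature / Material: human UCH37 within purified proteasomes / Technique: AMC fluorescence intensity at 355/460 nm / Buffer or medium: pH 7.4 Tris-HCl (50 mM) with ovalbumin, ATP-MgCl2, DTT / Controls: wells without proteasome as full block, compound-free enzyme plus substrate as uninhibited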
E coli growth = inhibitors of Escherichia coli growth; OD600, 23 h; stronger effect = lower value; OD600 absorbance (test concentration not listed); AID 1053175; 0.21% of 330,000 active;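 active means OD600 absorbance below the run mean of sample wells minus 3.6 SD, in any replicate, cut at about 0.56 in these data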;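 further: stock transfer was 300 nL into about 60 µL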
ALR inh = blocks human ALR sulfhydryl oxidase activity; P55789; purified ALR, DTT oxidation, H2O2 HRP-luminol luminescence; inhibition, % (concentration not given with the values); 3.8% of 290,000 active;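 active means mean and each replicate at 75% or more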;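 further: stock transfer was 7.5 nL into about 7.5 µL; 0% = neutral wells and 100% = wells with inactivated enzyme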
Target sequence (P55789 whole entry, looked up): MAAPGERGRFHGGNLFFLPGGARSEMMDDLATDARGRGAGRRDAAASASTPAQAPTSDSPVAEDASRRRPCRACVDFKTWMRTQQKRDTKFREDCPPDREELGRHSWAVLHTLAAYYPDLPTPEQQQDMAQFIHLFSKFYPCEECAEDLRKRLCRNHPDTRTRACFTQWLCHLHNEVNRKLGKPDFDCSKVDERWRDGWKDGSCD
LANA-H2B inh = blocks KSHV LANA binding to histone H2A/H2B; inhibition, % (concentration not given with the values); Q9QR71; cell-free LANA-H2A/H2B peptide, fluorescence polarization; AID 2629; 0.6% of 320,000 active; in the data active means inhibition mostly above about 10%, no sharp cut-off; inactive means mostly below about 6.7%;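 further: stock transfer was 7.5 nL into about 10 µL; 0% = median of vehicle wells and 100% = median of positive control wells; one replicate is shown; the record names a cut of 25% in any replicate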
* hit, by the source's call; i = inactive; · = no result given. An excerpt. The share of hits here may be higher or lower than overall.

FGF22 binding | Beta2AR agonist | HNF4A DNA FP | UCH37 inh | E coli growth | ALR inh | LANA-H2B inh | SMILES
i | 0 | -5.3 | 1.4 | · | · | -6.6 | C[C@@H](C(=O)N1CCN(C(=O)OC(C)(C)C)CC1)n1cc(CCC(=O)O)nn1
i | -1 | -0.1 | 1.7 | 0.68 | -5 | -6.9 | Cc1ccc(NC(=O)C2OCCc3ccccc32)cc1 (stereo unspecified)
· | -13 | 5.7 | -2.9 | 0.71 | -6 | -3.4 | O=C(Nc1cccc(C(F)(F)F)c1)C1CCCN(c2ncccn2)C1 (stereo unspecified)
i | -18 | -1.5 | 3.4 | 0.69 | -7 | -0.3 | CC(=O)c1ccc(Nc2cc(C)nc3ccccc23)cc1
i | 3 | -2.5 | 1.7 | 0.68 | -3 | -2.8 | COc1ccccc1CNC(=O)COC(=O)COc1ccccc1F
i | 1 | -1.5 | 1.1 | 0.71 | -17 | -4.2 | O=C(CNC(=O)COc1ccccc1)NCCc1ccccn1
· | 1 | 4.1 | 2.3 | 0.73 | -12 | -1.0 | COc1ccc(-c2cn(-c3ccc(C)cc3)c(=O)n2CC(=O)Nc2ccc(OC)c(OC)c2)cc1
· | -1 | 0.1 | 5.0 | 0.74 | -5 | 3.2 | COc1ccc(N(CN2C(=O)C3CC=CCC3C2=O)C(=O)c2ccco2)cc1 (stereo unspecified)
i | 8 | -2.4 | 0.9 | 0.64 | -10 | 4.7 | COc1ccc(C(CNC(=O)C2CCN(S(=O)(=O)c3ccc(F)cc3)CC2)N(C)C)cc1 (stereo unspecified)
i | -2 | -5.1 | 14 | 0.67 | 2 | 6.6 | Cc1ccc(C(=O)N/C(=C\c2ccc(-c3ccccc3[N+](=O)[O-])o2)C(=O)NCCCN(C)C)cc1
i | 2 | -0.5 | 6.7 | 0.68 | -3 | 3.1 | COc1ccc(Cl)cc1NC(=O)N1CCN(C2CCCCC2)CC1
· | 6 | -1.2 | 0.5 | 0.69 | -15 | -2.7 | CC1CC1c1ccc(/C=C(\C#N)C(=O)Nc2ccc(Cl)cc2)o1 (stereo unspecified)
i | -3 | 0.2 | 2.0 | 0.67 | 10 | 0.2 | COc1ccc2nc(NCc3cccnc3)sc2c1
i | 8 | -1.5 | 2.3 | 0.71 | · | · | COCCNC(=O)/C(C#N)=C/c1ccc(OC(=O)c2cccs2)c(OC)c1
i | -5 | 1.7 | 3.5 | 0.71 | -5 | -5.6 | NS(=O)(=O)c1ccc(CCNC(=O)CNCCc2ccccc2)cc1
i | 11 | 0.1 | 4.6 | 0.72 | · | · | Cc1ccc(C(=O)OCC(=O)Nc2ccccc2C(F)(F)F)cc1S(=O)(=O)N1CCCCC1
i | 10 | 3.8 | · | · | 35 | 2.2 | C(=N/Nc1cc(N2CCOCC2)nc(N2CCOCC2)n1)/c1ccccc1
i | -3 | -0.9 | 4.6 | 0.71 | -4 | 3.2 | CCc1nnc(NC(=O)C2CCCN2C(=O)Nc2ccccc2)s1 (stereo unspecified)
i | -4 | -1.2 | -0.6 | 0.69 | -3 | -0.4 | CCOc1ccc(S(=O)(=O)N2CCN(C(=O)c3ccncc3)CC2)cc1
i | -13 | 2.0 | 3.9 | 0.66 | -10 | 0.6 | O=C(Nc1ccc([N+](=O)[O-])c(NC(=O)c2cccnc2)c1)c1cccnc1
i | -4 | -2.6 | 5.0 | 0.66 | 28 | -11 | C=CCn1c(=O)c2c(nc3n2CCCN3CCc2ccccc2)n(C)c1=O
i | -5 | 2.8 | 2.2 | 0.68 | 3 | -5.8 | CC(C)C[C@H](NC(=O)[C@@H](Cc1ccccc1)n1c(=O)[nH]c2ccccc2c1=O)C(=O)N[C@@H](Cc1ccccc1)C(=O)O
i | 14 | 4.2 | 0.5 | 0.68 | 1 | -7.1 | O=C(CSc1ncnc2sc3c(c12)CCCC3)NC1CCS(=O)(=O)C1 (stereo unspecified)
i | -7 | 1.0 | 2.8 | 0.7 | 28 | -0.3 | O=[N+]([O-])c1ccc(Cc2nnc(-c3ccc(F)cc3)o2)cc1
· | -2 | 2.8 | · | · | · | -4.7 | Oc1ccc(Br)cc1/C=N/N1CCN(Cc2ccccc2)CC1

The list goes on; the last two above are carried over.
FGF22 binding | Beta2AR agonist | HNF4A DNA FP | UCH37 inh | E coli growth | ALR inh | LANA-H2B inh | SMILES
i | -7 | 1.0 | 2.8 | 0.7 | 28 | -0.3 | O=[N+]([O-])c1ccc(Cc2nnc(-c3ccc(F)cc3)o2)cc1
· | -2 | 2.8 | · | · | · | -4.7 | Oc1ccc(Br)cc1/C=N/N1CCN(Cc2ccccc2)CC1
i | 12 | 1.6 | -3.0 | 0.71 | 3 | 3.1 | Cc1nc(N2CCN(c3ccccn3)CC2)c2c(C)c(C(=O)N3CCN(c4ccccc4F)CC3)sc2n1
i | -2 | 0.0 | 4.8 | 0.7 | -3 | 2.9 | CCc1cn(S(=O)(=O)c2ccccc2OC)nc1N
i | 2 | 3.3 | -0.6 | 0.68 | 5 | -0.4 | Cc1ccc(-c2ccnc3c(Br)c(C)nn23)cc1
i | -12 | -2.4 | · | · | 2 | -1.3 | O=C(C[n+]1ccccc1)N/N=C/c1ccccc1C(F)(F)F
· | 3 | 2.4 | 1.8 | · | -16 | -0.2 | OCCNCCOCCOc1ccccc1-c1ccccc1
i | 2 | 3.7 | 3.5 | 0.69 | -7 | 9.6 | O=C(NC1CCN(C(=O)c2cccc([N+](=O)[O-])c2)CC1)c1ccccc1
· | 7 | 8.1 | 6.4 | 0.68 | -13 | 3.8 | COc1ccc(CN2CCOCC2)c(C)c1C
i | -4 | 2.4 | 0.7 | 0.64 | · | 0.1 | CN(C(=O)COC(=O)c1cc2ccccc2cc1O)C1CCCCC1
· | -6 | -0.6 | -4.6 | 0.75 | · | · | CCOc1ccccc1N(CC(=O)N1CCOCC1)S(=O)(=O)c1ccc(SC)cc1
· | 2 | 4.0 | -0.5 | 0.68 | -5 | -1.7 | COC(=O)c1c(C)[nH]c(C(=O)OCC(=O)N2c3ccccc3NC(=O)C2(C)C)c1C
i | 8 | -0.9 | 3.9 | 0.65 | -8 | 4.2 | CCCCC(O)(CCCC)C(=O)NN(C(=O)OC)c1ccccc1
i | 3 | -19 | · | · | -2 | -1.0 | O=C(N/N=C/c1cc(Cl)cc([N+](=O)[O-])c1O)NC12CC3CC(CC(C3)C1)C2
i | 3 | 5.7 | 2.1 | 0.65 | 3 | 4.4 | CCCCn1c(N)c(N(CC(C)C)C(=O)c2ccc(Cl)c(S(=O)(=O)N3CCCC3)c2)c(=O)[nH]c1=O
i | -16 | 1.4 | 4.2 | 0.7 | -27 | -1.8 | Cc1ccc(-c2nn(C(C)(C)C)c3ncnc(NS(=O)(=O)c4ccc([N+](=O)[O-])cc4)c23)cc1
· | -4 | 3.5 | -0.5 | 0.69 | 1 | 0.5 | CCc1cc2c(cc3c(=O)n(CC(=O)NCCCN(CC)CC)nc(CC)n32)s1
i | -3 | 3.3 | 3.1 | 0.68 | -5 | 5.7 | O=C(Nc1ccc2c(c1)OCO2)c1ccc(CO)cc1
· | 0 | 5.7 | 2.9 | 0.67 | · | 4.3 | COCCn1c(SC(C)C(=O)NC2CC2)nnc1-c1cccc(C)c1 (stereo unspecified)
i | 7 | 1.2 | 4.8 | 0.71 | · | -0.8 | CN1CCN(C(=O)c2ccc(S(=O)(=O)Nc3ccccc3)cc2)CC1
· | -1 | -0.8 | 1.4 | 0.67 | -7 | 5.2 | O=C1N(C2CCCC2)C[C@@H]2C[C@@H](c3cn[nH]c3-c3ccc(Cl)cc3)N3CCC[C@@]123
· | -2 | -1.5 | 1.2 | 0.69 | -4 | -1.5 | CC(C)(C)c1ccc(C2(C)NC(=O)N(CC(=O)Nc3ccc4c(c3)OCO4)C2=O)cc1 (stereo unspecified)
· | 1 | 0.4 | -1.1 | 0.68 | -6 | 3.7 | Cc1ccc(C)c(S(=O)(=O)N2CCN(C(=O)Cn3c(C(F)(F)F)nc4ccccc43)CC2)c1
i | 6 | -2.9 | 1.7 | 0.63 | · | -0.3 | COC(=O)c1ccc(OC(=O)/C=C/c2ccco2)cc1
· | -10 | -0.9 | -0.8 | 0.71 | 12 | -4.8 | O=C(Nc1cc(C(F)(F)F)ccc1N1CCOCC1)c1ccc(Br)o1
· | 7 | -38 | 5.1 | 0.7 | · | · | COc1ccc(Cc2nnc(NC(=O)Cc3cccs3)s2)cc1
i | 7 | -0.7 | 6.0 | 0.66 | · | · | Nc1ccc2c(c1)C(=Cc1cccnc1)c1ccccc1-2
· | 2 | 1.9 | 1.5 | 0.68 | -4 | -2.6 | Cc1cc2nc(N)sc2cc1C
i | -19 | 1.3 | 6.4 | 0.68 | · | 3.0 | COc1cc(NC(=O)C2CC2)c(OC)cc1NC(=O)c1ccco1
i | 15 | -0.9 | 9.8 | 0.59 | -2 | 4.2 | Nc1nc(NCCCN2CCOCC2)nc(Nc2cccc(Cl)c2)c1[N+](=O)[O-]
i | 9 | 3.0 | 3.6 | 0.62 | · | 5.7 | COc1ccc(C(=O)Oc2ccc(Br)cc2C(=S)N2CCOCC2)cc1
i | 1 | -1.5 | 1.2 | 0.68 | -14 | -2.9 | O=C(Nc1cccc(Cl)c1Cl)Nn1cnnc1
· | -7 | 3.2 | 0.1 | 0.68 | -14 | -3.4 | Cc1ccc(OCCCOc2cccc3cccnc23)cc1C
· | -11 | -0.1 | · | · | -2 | 2.4 | COc1ccccc1/C=N/n1cnnc1
i | 1 | 0.8 | · | · | 3 | 0.2 | O=C1NC2(CCCCO2)CO1 (stereo unspecified)
· | -12 | -1.4 | -0.8 | 0.73 | 49 | 1.5 | CCOC(=O)c1c(N)sc(C(=O)N2CCCCC2)c1C
· | 3 | -1.1 | 5.6 | 0.73 | -14 | -1.5 | CCC(=O)Nc1ccccc1C(=O)OC(c1ccccc1)c1ccccc1
i | 3 | 5.7 | -0.9 | 0.72 | 86* | -14 | Cc1cc(C)c(S(=O)(=O)Nc2ccc(N3CCOCC3)cc2)c(C)c1
i | -1 | 0.2 | 2.8 | 0.66 | 1 | 4.0 | COc1cccc(NC(=O)CN(C)C(=O)c2ccc(-c3cccc(C(F)(F)F)c3)o2)c1
i | 5 | -3.4 | -1.3 | 0.67 | · | · | CC(=O)OCC(=O)C1(O)CCC2C3CC(F)C4=CC(=O)CCC4(C)C3C(O)CC21C (stereo unspecified)
· | -14 | 1.2 | 0.4 | 0.69 | 36 | 5.8 | CN(C)C(=O)CSc1nc2ccccc2n1Cc1ccccc1
· | 7 | -1.4 | 1.8 | 0.64 | -4 | -5.7 | CC1(C)NC(=O)N(CC(=O)Nc2nc(-c3ccc(F)cc3)cs2)C1=O
· | -1 | 0.6 | 2.8 | 0.72 | -2 | -0.2 | O=C(Nc1ccc(F)cc1Cl)c1ccc2c(=O)n3c(nc2c1)CCCCC3
i | 2 | 1.8 | 2.6 | 0.71 | 7 | -5.0 | CC(=O)c1ccc(NC(=S)Nc2ccn(Cc3ccc(Br)cc3)n2)cc1

A different layout for six compounds above.
SMILES | FGF22 binding | Beta2AR agonist | HNF4A DNA FP | UCH37 inh | E coli growth | ALR inh | LANA-H2B inh
O=C(Nc1cccc(Cl)c1Cl)Nn1cnnc1 | i | 1 | -1.5 | 1.2 | 0.68 | -14 | -2.9
Cc1ccc(OCCCOc2cccc3cccnc23)cc1C | · | -7 | 3.2 | 0.1 | 0.68 | -14 | -3.4
COc1ccccc1/C=N/n1cnnc1 | · | -11 | -0.1 | · | · | -2 | 2.4
O=C1NC2(CCCCO2)CO1 (stereo unspecified) | i | 1 | 0.8 | · | · | 3 | 0.2
CCOC(=O)c1c(N)sc(C(=O)N2CCCCC2)c1C | · | -12 | -1.4 | -0.8 | 0.73 | 49 | 1.5
CCC(=O)Nc1ccccc1C(=O)OC(c1ccccc1)c1ccccc1 | · | 3 | -1.1 | 5.6 | 0.73 | -14 | -1.5

Source: PubChem
